A1 apoptosis 2: A1 inhibitors via caspase activation, primary screen, cell-based, luminescence, HTS, two replicates; MEF A1-2A-BIM cells, caspase-Glo luminescence, 3 h; percent of clofoctol response, DMSO zero; caspase activation, % (no concentration beside the values); 24,000 tested, under 10 active; in the data active = caspase activation above about 5.9%;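 note: wells of about 30 µL received 50 nL stock; the first replicate is given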
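Material: A1-2A-BIM-expressing MEF cells. Buffer or medium: RPMI-1640 plus 10% FBS. Incubation: cells settled overnight, compound exposure 3 h at 37 °C, 5% CO2. Signal: Caspase-Glo 3/7 luminescence, 1 h at room temperature.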
* hit, by the source's call.

C[C@@H]1CN([C@H](C)CO)C(=O)c2cccc(NS(=O)(=O)c3ccccc3)c2O[C@H]1CN(C)S(=O)(=O)c1ccc(Cl)cc1
  A1 apoptosis 2: 0.6
COc1ccc(NC(=O)N(C)C[C@H]2Oc3ccc(NC(=O)Cc4ccccc4)cc3C(=O)N([C@H](C)CO)C[C@H]2C)cc1
  A1 apoptosis 2: 0.6
C[C@H](CO)N1C[C@H](C)[C@H](CN(C)S(=O)(=O)c2ccccc2)OCCCC[C@H](C)Oc2ccc(NC(=O)Nc3ccc4c(c3)OCO4)cc2C1=O
  A1 apoptosis 2: 1.8
C[C@H]1CN([C@@H](C)CO)C(=O)c2cccc(NC(=O)c3ccc(-c4nccs4)cc3)c2O[C@@H]1CN(C)CC1CCCCC1
  A1 apoptosis 2: -1.1
C[C@@H]1CN([C@H](C)CO)C(=O)Cc2cc(NC(=O)Cc3cn(C)c4ccccc34)ccc2O[C@@H]1CN(C)Cc1ccc(Cl)c(Cl)c1
  A1 apoptosis 2: 0.8
Cc1noc(C)c1S(=O)(=O)Nc1ccc2c(c1)CC(=O)N([C@@H](C)CO)C[C@H](C)[C@H](CN(C)Cc1ccc(C(=O)O)cc1)O2
  A1 apoptosis 2: -0.4
C[C@@H]1CN([C@H](C)CO)C(=O)c2cccc(NC(=O)Nc3cccc4ccccc34)c2O[C@@H]1CN(C)Cc1ccc(C(=O)O)cc1
  A1 apoptosis 2: -1.1
COc1ccc(S(=O)(=O)Nc2ccc3c(c2)C(=O)N([C@H](C)CO)C[C@@H](C)[C@H](CN(C)Cc2ccccc2)OCCCC[C@H](C)O3)cc1
  A1 apoptosis 2: 0.5
C[C@@H]1CCCCO[C@@H](CN(C)CC2CC2)[C@@H](C)CN([C@H](C)CO)C(=O)c2cc(NS(C)(=O)=O)ccc2O1
  A1 apoptosis 2: -0.8
C[C@@H]1CN([C@@H](C)CO)C(=O)c2cccc(NC(=O)C3CC3)c2O[C@H]1CN(C)Cc1ccncc1
  A1 apoptosis 2: -1.4

C[C@@H]1CN([C@@H](C)CO)C(=O)Cc2cc(NC(=O)CCN3CCOCC3)ccc2O[C@H]1CN(C)C(=O)Nc1ccccc1
  A1 apoptosis 2: 0.6
C[C@H](CO)N1C[C@H](C)[C@H](CN(C)S(=O)(=O)c2cn(C)cn2)Oc2ncc(-c3cc4ccccc4o3)cc2C1=O
  A1 apoptosis 2: -0.5
C[C@@H]1CN([C@@H](C)CO)C(=O)CCCn2cc(nn2)CO[C@H]1CN(C)S(=O)(=O)c1cccc(C#N)c1
  A1 apoptosis 2: 0.4
C[C@H](CO)N1C[C@H](C)[C@@H](CN(C)CC2CCCCC2)Oc2c(NC(=O)Nc3ccc(F)cc3)cccc2C1=O
  A1 apoptosis 2: -0.4
COc1ccc(COC[C@]23NC(=S)N[C@H](c4ccccc4O2)[C@H]3CO[Si](C)(C)C(C)(C)C)cc1
  A1 apoptosis 2: 0.7
C[C@@H]1CCCCO[C@H](CN(C)C(=O)CCC(F)(F)F)[C@@H](C)CN([C@@H](C)CO)C(=O)c2cc(NC(=O)Cc3ccccc3)ccc2O1
  A1 apoptosis 2: -0.5
CC(C)NC(=O)Nc1cccc2c1O[C@@H](CN(C)S(=O)(=O)c1cn(C)cn1)[C@@H](C)CN([C@@H](C)CO)C2=O
  A1 apoptosis 2: 0.3
Cc1noc(C)c1NC(=O)Nc1cccc2c1O[C@H](CN(C)Cc1ccc(C(=O)O)cc1)[C@@H](C)CN([C@H](C)CO)C2=O
  A1 apoptosis 2: 0.2
COc1ccc(NC(=O)Nc2ccc3c(c2)C(=O)N([C@@H](C)CO)C[C@@H](C)[C@H](CN(C)S(=O)(=O)c2ccc(OC)cc2)O3)cc1
  A1 apoptosis 2: 0.1
C[C@H]1CN([C@@H](C)CO)C(=O)c2cc(NC(=O)Cn3cnnn3)ccc2O[C@@H]1CN(C)C(=O)NC1CCCCC1
  A1 apoptosis 2: 0.3

CC(C)NC(=O)Nc1ccc2c(c1)C(=O)N([C@H](C)CO)C[C@H](C)[C@H](CN(C)Cc1ccccc1)OCCCC[C@@H](C)O2
  A1 apoptosis 2: -0.4
CC(C)NC(=O)Nc1ccc2c(c1)C(=O)N([C@H](C)CO)C[C@@H](C)[C@@H](CN(C)C)OCCCC[C@H](C)O2
  A1 apoptosis 2: -0.2
Cn1cc(/C=N/NC(=O)CCCCCC(=O)NO)c2ccccc21
  A1 apoptosis 2: -0.5
Cc1noc(C)c1NC(=O)N(C)C[C@@H]1OCCCC[C@H](C)Oc2ccc(NC(=O)C3CCCCC3)cc2C(=O)N([C@@H](C)CO)C[C@H]1C
  A1 apoptosis 2: 0.1
CC(C)NC(=O)N(C)C[C@@H]1OCCCC[C@@H](C)Oc2ccc(NS(=O)(=O)c3ccc(Cl)cc3)cc2C(=O)N([C@H](C)CO)C[C@@H]1C
  A1 apoptosis 2: 1.9
C[C@H](CO)N1C[C@H](C)[C@H](CN(C)C(=O)Nc2ccc(C(F)(F)F)cc2)Oc2ccc(NC(=O)C3CCCCC3)cc2C1=O
  A1 apoptosis 2: -0.6
C[C@@H]1CN([C@@H](C)CO)C(=O)c2cc(NS(=O)(=O)c3ccc(Cl)cc3)ccc2O[C@H]1CN(C)Cc1ccc(C(=O)Nc2ccccc2N)cc1
  A1 apoptosis 2: 1.4
C[C@@H]1CN([C@@H](C)CO)C(=O)Cc2cc(NS(=O)(=O)c3ccccc3)ccc2O[C@H]1CN(C)Cc1ccc2c(c1)OCO2
  A1 apoptosis 2: 0.2
C[C@@H]1CCCCO[C@@H](CN(C)C(=O)Nc2ccc(C(F)(F)F)cc2)[C@H](C)CN([C@@H](C)CO)C(=O)c2cc(NC(=O)Nc3ccccc3)ccc2O1
  A1 apoptosis 2: 0.1
C[C@@H]1CCCCO[C@H](CN(C)C(=O)Nc2cccc3ccccc23)[C@H](C)CN([C@@H](C)CO)C(=O)c2cc(N(C)C)ccc2O1
  A1 apoptosis 2: -1.3

CC(C)NC(=O)N(C)C[C@H]1OCCCC[C@H](C)Oc2ccc(NC(=O)c3ccncc3)cc2C(=O)N([C@@H](C)CO)C[C@H]1C
  A1 apoptosis 2: 0.8
COc1ccc(S(=O)(=O)N(C)C[C@@H]2Oc3ccc(NS(=O)(=O)c4ccc(F)cc4)cc3CC(=O)N([C@@H](C)CO)C[C@@H]2C)cc1
  A1 apoptosis 2: -0.1
C[C@H]1CN([C@@H](C)CO)C(=O)c2cccc(N(C)C)c2O[C@@H]1CN(C)C(=O)Nc1ccccc1
  A1 apoptosis 2: 0.6
C[C@H]1CN([C@@H](C)CO)C(=O)c2cc(NC(=O)NC3CCCCC3)ccc2O[C@H]1CN(C)S(=O)(=O)c1ccccc1
  A1 apoptosis 2: -0.5
C[C@@H]1CN([C@H](C)CO)C(=O)c2cc(NC(=O)Nc3ccc(C(F)(F)F)cc3)ccc2O[C@H]1CN(C)S(=O)(=O)c1ccc(Cl)cc1
  A1 apoptosis 2: 0.3
C[C@@H]1CN([C@@H](C)CO)C(=O)c2cc(NC(=O)Nc3cccc4ccccc34)ccc2O[C@@H]1CN(C)S(=O)(=O)c1ccc(F)cc1
  A1 apoptosis 2: -1.1
C[C@@H]1CN([C@H](C)CO)C(=O)Cc2cc(NC(=O)CCN3CCOCC3)ccc2O[C@@H]1CN(C)Cc1ccc(C(F)(F)F)cc1
  A1 apoptosis 2: -0.9
C[C@@H]1CN([C@H](C)CO)C(=O)Cc2cc(NS(C)(=O)=O)ccc2O[C@H]1CN(C)Cc1ccc(C(=O)O)cc1
  A1 apoptosis 2: 1.1
CC(C)NC(=O)Nc1ccc2c(c1)C(=O)N([C@H](C)CO)C[C@@H](C)[C@@H](CN(C)C(=O)NC1CCCCC1)OCCCC[C@H](C)O2
  A1 apoptosis 2: -0.2
C[C@@H]1CN([C@@H](C)CO)C(=O)Cc2cc(NS(=O)(=O)c3ccc(Cl)cc3)ccc2O[C@H]1CN(C)Cc1ccncc1
  A1 apoptosis 2: 0.3

COc1ccc(S(=O)(=O)NC2CCN(Cc3cccc(OCCO)c3)CC2)cc1
  A1 apoptosis 2: -0.3
C[C@H](CO)N1C[C@H](C)[C@@H](CN(C)CC2CC2)Oc2c(NC(=O)c3nc4ccccc4s3)cccc2C1=O
  A1 apoptosis 2: -0.1
C[C@@H]1CN([C@@H](C)CO)C(=O)c2cccc(NC(=O)C3CCOCC3)c2O[C@H]1CN(C)Cc1ccccc1
  A1 apoptosis 2: 0.4
COc1ccc([Si](C)(C)[C@@H]2[C@@H](CCO)O[C@]3(C(=O)N(Cc4ccccc4)c4ccc(N5CCOC5=O)cc43)[C@H]2C)cc1
  A1 apoptosis 2: -0.7
COc1ccc(NC(=O)N(C)C[C@H]2OCCCC[C@H](C)Oc3ccc(NC(=O)Nc4cccc5ccccc45)cc3C(=O)N([C@H](C)CO)C[C@@H]2C)cc1
  A1 apoptosis 2: 0.5
C[C@H](CO)N1C[C@H](C)[C@@H](CN(C)C(=O)Nc2ccc(C(F)(F)F)cc2)Oc2ccc(NC(=O)CCC(F)(F)F)cc2C1=O
  A1 apoptosis 2: -0.5
C[C@H]1CCCCO[C@@H](CN(C)S(=O)(=O)c2ccccc2)[C@@H](C)CN([C@@H](C)CO)C(=O)c2cc(NS(C)(=O)=O)ccc2O1
  A1 apoptosis 2: 0.6
COc1ccc(S(=O)(=O)N(C)C[C@H]2Oc3ccc(NC(=O)Cc4cn(C)c5ccccc45)cc3C(=O)N([C@@H](C)CO)C[C@H]2C)cc1
  A1 apoptosis 2: -0.7
COc1ccc(NC(=O)N(C)C[C@H]2Oc3ccc(NS(=O)(=O)c4ccc(OC)cc4)cc3C(=O)N([C@H](C)CO)C[C@H]2C)cc1
  A1 apoptosis 2: -0.1
C[C@@H]1CN([C@@H](C)CO)C(=O)CCCn2cc(nn2)CO[C@H]1CN(C)C(=O)Nc1ccccc1
  A1 apoptosis 2: -0.7

Cc1noc(C)c1S(=O)(=O)Nc1ccc2c(c1)C(=O)N([C@H](C)CO)C[C@H](C)[C@H](CN(C)Cc1ccncc1)OCCCC[C@H](C)O2
  A1 apoptosis 2: 1.1
C[C@@H]1CN([C@H](C)CO)C(=O)c2cc(N(C)C)ccc2O[C@@H]1CN(C)Cc1ccncc1
  A1 apoptosis 2: -0.9
C[C@@H]1CN([C@@H](C)CO)C(=O)c2cc(NC(=O)CCCN(C)C)ccc2O[C@H]1CN(C)Cc1ccc(-c2ccccc2)cc1
  A1 apoptosis 2: 0.7
C[C@H]1CN([C@@H](C)CO)C(=O)c2cccc(NS(=O)(=O)c3cccs3)c2O[C@H]1CN(C)C(=O)Nc1ccc2c(c1)OCO2
  A1 apoptosis 2: -0.8
Cc1noc(C)c1S(=O)(=O)Nc1ccc2c(c1)C(=O)N([C@H](C)CO)C[C@@H](C)[C@H](CN(C)C(=O)c1ccccc1)OCCCC[C@@H](C)O2
  A1 apoptosis 2: 1.7
C[C@H](CO)N1C[C@H](C)[C@@H](CN(C)Cc2ccc(Cl)c(Cl)c2)OCCCC[C@H](C)Oc2ccc(NS(C)(=O)=O)cc2C1=O
  A1 apoptosis 2: -1.3
C[C@@H]1CN([C@@H](C)CO)C(=O)c2cc(N(C)C)ccc2O[C@H]1CN(C)Cc1ccc(-c2ccccc2)cc1
  A1 apoptosis 2: -0.5
C[C@H]1CCCCO[C@@H](CN(C)C)[C@@H](C)CN([C@@H](C)CO)C(=O)c2cc(NC(=O)Cc3ccccc3)ccc2O1
  A1 apoptosis 2: -0.1
C[C@@H]1CN([C@@H](C)CO)C(=O)Cc2cc(NC(=O)Nc3cccc4ccccc34)ccc2O[C@H]1CN(C)S(=O)(=O)c1ccc(Cl)cc1
  A1 apoptosis 2: 0.4
C[C@@H]1CCCCO[C@H](CN(C)C(=O)CCCN(C)C)[C@@H](C)CN([C@@H](C)CO)C(=O)c2cc(NC(=O)Nc3ccc(F)cc3)ccc2O1
  A1 apoptosis 2: 2.2

COc1ccc(S(=O)(=O)N(C)C[C@H]2Oc3c(NC(=O)Nc4c(C)noc4C)cccc3C(=O)N([C@@H](C)CO)C[C@H]2C)cc1
  A1 apoptosis 2: -1.8
COc1ccc(NC(=O)N(C)C[C@H]2Oc3ccc(NC(=O)Nc4ccc5c(c4)OCO5)cc3C(=O)N([C@H](C)CO)C[C@H]2C)cc1
  A1 apoptosis 2: -0.7
Cc1noc(C)c1S(=O)(=O)N(C)C[C@H]1Oc2ccc(NC(=O)NC(C)C)cc2CC(=O)N([C@H](C)CO)C[C@@H]1C
  A1 apoptosis 2: -0.1
C[C@@H]1CCCCO[C@@H](CN(C)C(=O)c2ccncc2)[C@@H](C)CN([C@H](C)CO)C(=O)c2cc(N(C)C)ccc2O1
  A1 apoptosis 2: 0.6
Cc1noc(C)c1S(=O)(=O)Nc1cccc2c1O[C@H](CN(C)Cc1ccc(C(=O)O)cc1)[C@@H](C)CN([C@@H](C)CO)C2=O
  A1 apoptosis 2: 0.0
COc1ccc(S(=O)(=O)N(C)C[C@H]2Oc3c(NC(=O)c4ccc(-c5nccs5)cc4)cccc3C(=O)N([C@@H](C)CO)C[C@H]2C)cc1
  A1 apoptosis 2: -1.2
C[C@H](CO)N1C[C@H](C)[C@H](CN(C)C(=O)Nc2ccc(C(F)(F)F)cc2)Oc2ccc(NC(=O)CCN3CCOCC3)cc2CC1=O
  A1 apoptosis 2: -0.3
C[C@@H]1CN([C@H](C)CO)C(=O)c2cccc(NS(=O)(=O)c3ccc(F)cc3)c2O[C@@H]1CN(C)Cc1ccc(C(F)(F)F)cc1
  A1 apoptosis 2: -1.1
CC(C)NC(=O)N(C)C[C@H]1Oc2c(NC(=O)c3cnccn3)cccc2C(=O)N([C@@H](C)CO)C[C@H]1C
  A1 apoptosis 2: 0.5
C[C@@H]1CN([C@@H](C)CO)C(=O)c2cc(NS(=O)(=O)c3ccccc3)ccc2O[C@@H](C)CCCCO[C@@H]1CN(C)C(=O)Cc1ccccc1
  A1 apoptosis 2: 0.1
C[C@H]1CN([C@@H](C)CO)C(=O)CCCn2cc(nn2)CO[C@@H]1CN(C)C(=O)OCc1ccccc1
  A1 apoptosis 2: -0.9

From PubChem BioAssay

Some of the compounds tested; rates above refer to the full screens.
